Screens (PubChem BioAssay)
KCNQ2 block = KCNQ2 potassium channel inhibitors, primary screen, cell-based, CHO-K1, FluxOR thallium flux, B-score (AID 2156); Potassium voltage-gated channel subfamily KQT member 2 (Rattus norvegicus), O88943; 20 min; stronger effect = lower value; only compounds with negative scores are shown here; some inactives read as strong as hits; B-score at 10 µM; 310,000 tested, 1.1% active;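 active means fluorescence ratio B-score at most minus 3 library SDs, with starting brightness B-score within 2 library SDs, cut at about -5.5 in these data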
Target sequence (O88943 whole entry, looked up): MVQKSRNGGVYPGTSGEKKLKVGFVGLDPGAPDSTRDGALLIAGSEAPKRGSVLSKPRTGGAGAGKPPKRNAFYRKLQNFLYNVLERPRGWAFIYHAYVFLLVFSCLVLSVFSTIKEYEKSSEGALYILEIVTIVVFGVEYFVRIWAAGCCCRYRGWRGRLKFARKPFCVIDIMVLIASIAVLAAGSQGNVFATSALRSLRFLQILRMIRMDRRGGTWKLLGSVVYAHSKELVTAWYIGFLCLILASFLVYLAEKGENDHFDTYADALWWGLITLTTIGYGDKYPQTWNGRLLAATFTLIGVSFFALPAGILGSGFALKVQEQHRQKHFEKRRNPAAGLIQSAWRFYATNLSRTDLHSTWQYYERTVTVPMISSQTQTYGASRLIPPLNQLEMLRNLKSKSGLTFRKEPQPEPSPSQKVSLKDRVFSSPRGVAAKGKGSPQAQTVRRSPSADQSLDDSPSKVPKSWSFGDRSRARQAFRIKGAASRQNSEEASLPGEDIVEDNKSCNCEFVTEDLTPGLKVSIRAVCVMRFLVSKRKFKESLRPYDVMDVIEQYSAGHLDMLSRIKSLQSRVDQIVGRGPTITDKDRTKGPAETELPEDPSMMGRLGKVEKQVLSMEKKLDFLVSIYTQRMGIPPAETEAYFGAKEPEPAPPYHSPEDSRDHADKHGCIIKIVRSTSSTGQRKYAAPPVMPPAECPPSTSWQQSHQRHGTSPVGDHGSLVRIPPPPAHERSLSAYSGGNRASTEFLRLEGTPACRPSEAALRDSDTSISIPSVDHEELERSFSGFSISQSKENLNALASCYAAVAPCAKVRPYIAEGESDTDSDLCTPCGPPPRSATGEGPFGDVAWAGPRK
KCNQ2 block baseline = also measured in KCNQ2 block; calls as there; B-score; measured here: initial fluorescence intensity artifact check;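 brightness before thallium and not channel activity; 0 = typical well and far values either way flag optical interference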
* = called active by the depositor; i = inactive; & = joins results of further samples. Some of the compounds tested; rates above refer to the full screens.

SMILES	KCNQ2 block	KCNQ2 block baseline
CC(=O)OCn1ncc(N2CCOCC2)c(Br)c1=O	i	0.66
CCCCN1C(=O)C2(OCCCO2)c2cccc(C)c21	i	-1.5
Cc1nn(CC(=O)Nc2sc3c(c2C#N)CCC(C(C)(C)C)C3)c(C)c1[N+](=O)[O-] (configuration not stated)	i	-1
Cc1ccccc1C1c2[nH]c3ccccc3c2CCN1C(=O)c1ccc(=O)n(C)n1 (configuration not stated)	i	1.7
CS(=O)(=O)N(CC(=O)Nc1c(F)cccc1F)Cc1ccccc1	i	1.1
COc1ccc2nc(SCC(=O)NC3CCCc4ccccc43)[nH]c2c1 (configuration not stated)	i	-0.5
C=CCNC(=O)CN1CCC(c2nc3cc(C)c(C)cc3[nH]2)CC1	i	0.04
CC(=O)c1c(C)nc2ccc(C)cc2c1-c1ccccc1	i	-2.5
CCc1cccc(NC(=O)C2CCCN2S(=O)(=O)c2ccc3c(c2)CC(C)N3C(C)=O)c1 (configuration not stated)	i	0.96
CCn1c(CC(C)C)n[nH]c1=S	i	2.4
NCCS(=O)(=O)NC1CCCCC1	i	-0.37
N#Cc1cccc(NC(=O)COC(=O)c2ccc3c(=O)n4c(nc3c2)CCC4)c1	i	0.81
COc1ccc(CN(C(=O)c2cccs2)c2nccs2)cc1OC	i	-0.83
CN(C)S(=O)(=O)c1cccc(CNCC2COc3ccccc3O2)c1 (configuration not stated)	i	0.49
COc1ccc2c(CC(=O)Nc3ncc(C)s3)coc2c1	i	1.9

Filtered by structure: the compounds so far with an NH in an aromatic ring (4)
SMILES	KCNQ2 block	KCNQ2 block baseline
Cc1ccccc1C1c2[nH]c3ccccc3c2CCN1C(=O)c1ccc(=O)n(C)n1 (configuration not stated)	i	1.7
COc1ccc2nc(SCC(=O)NC3CCCc4ccccc43)[nH]c2c1 (configuration not stated)	i	-0.5
C=CCNC(=O)CN1CCC(c2nc3cc(C)c(C)cc3[nH]2)CC1	i	0.04
CCn1c(CC(C)C)n[nH]c1=S	i	2.4

Next entries follow:
SMILES	KCNQ2 block	KCNQ2 block baseline
CCc1nn(CCCN2CCN(c3cccc(Cl)c3)CC2)c(=O)n1CCOc1ccccc1	i	0.1&-0.01
CC(=O)N1CCOc2ccc(S(=O)(=O)N3CC(C)CC(C)C3)cc21 (configuration not stated)	i	-0.36
CN1CCCN(S(=O)(=O)c2ccc3ccccc3c2)CC1	i	-0.72
COc1ccc(C(=O)NCC2(c3ccc(OC)c(OC)c3)CCCC2)c(OC)c1	i	-0.52
COc1ccc(C)cc1Nc1nc(C)nc2c1oc1ccccc12	i	2.8
CC(C)CC(=O)Nc1cccc(-c2nc3ccccc3o2)c1	i	1.4
CC(=O)Oc1ccc2c(=O)oc(-c3ccc([N+](=O)[O-])cc3)nc2c1	i	-0.24
CCC(=O)Nc1nc2ccccc2n1CCN(CC)CC	i	2.6
COC(=O)c1cn(CC(=O)NCc2ccco2)c2ccccc12	i	0.81
CCOC(=O)Nc1cc(C(=O)OCC)c(C)nc1C	i	0.93
CCOc1ccc(S(=O)(=O)c2c[nH]c3ccc(C)cc3c2=O)cc1	i	2.5
CCNC(=S)NNc1ccccc1	i	-1.9
Cc1ccc(Nc2ccc(C(=O)NC3CCCCC3)cn2)cc1	i	0.27
CC1(C)C2CCC1(C)C(OC(=O)CNc1ccccc1)C2 (configuration not stated)	i	-0.91
COc1ccc(CN(CCC(c2ccccc2)C2CCOC(C)(C)C2)C(C)=O)cc1 (configuration not stated)	i	0.58
Cc1nn(-c2ccc([N+](=O)[O-])cc2)c2c1C(c1cccc(Br)c1)N1C(=N2)C(=O)Nc2ccccc21 (configuration not stated)	i	0.15
CCOC(=O)C1CSC2(CCC(c3ccccc3)CC2)N1 (configuration not stated)	i	1.2
Fc1ccccc1N=C1NN=C(c2ccccc2)CS1	i	0.21
O=C(NCc1cccs1)C1CCCN1C(=O)Nc1ccc(F)cc1 (configuration not stated)	i	0.58
Cc1cccc(C(=O)Nc2ccc(C(=O)N/N=C/c3ccc(C)o3)cc2)c1	i	1.9
Cc1cccc(C)c1OCC(=O)N/N=C/c1ccc2c(c1)OCO2	i	-1.5
O=S(=O)(NC1CCCCC1)c1ccc(Br)s1	i	0.45
COc1ccc(-c2noc(CCCOc3ccc(Cl)cc3Cl)n2)cc1	i	0.69
CC(C)c1ccc(C2C(C(=O)c3ccco3)=C(O)C(=O)N2CC2CCCO2)cc1 (configuration not stated)	i	1.9
COc1cc(OC)c(Nc2cc(C)nc3nc(C)nn23)cc1Cl	i	0.09
Cc1[nH]n(-c2ccccc2)c(=O)c1/C=N/NC(=O)C(C)C	i	-1.6
CN(C(=O)CSC1=NC2C(N=N1)c1cc(Br)ccc1N2C)C1CCCCC1 (configuration not stated)	i	1.2
O=C(OCC(=O)N1CCN(C(=O)c2ccco2)CC1)c1ccccc1C(=O)c1ccccc1	i	1.6
Cc1cccc(NC(=O)C2CCCN(S(=O)(=O)c3ccc4[nH]c(=O)ccc4c3)C2)c1 (configuration not stated)	i	0.11
COC(=O)c1cc2ccccc2c(=O)s1	i	-1.6
CN(C)CCCN(C(=O)c1cc2ccccc2oc1=O)c1nc2c(F)cccc2s1	i	1.2
O=C(c1ccccc1C(=O)N1CCN(c2ccc(F)cc2)CC1)N1CCN(c2ccc(F)cc2)CC1	i	1.3
C#CCNC(=O)c1ccc(OCc2ccccc2)cc1Cl	i	2.1
COc1ccc(/C=N\NC(=O)c2ccc([N+](=O)[O-])c(C)c2)cc1COc1ccccc1C(N)=O	i	0.56
O=C(O)C1C2CCC(O2)C1C(=O)Nc1ccc(Cl)cc1F (configuration not stated)	i	2.9
NS(=O)(=O)c1ccc(Nc2ccccc2)c([N+](=O)[O-])c1	i	0.36
COCCCNC(=O)c1ccc(N(C)S(C)(=O)=O)cc1	i	-1.3
N#Cc1cc2c([nH]c1=S)CCCCCC2	i	-0.01
COc1cc(CNCCO)cc(Cl)c1OCc1ccccc1Cl	i	-0.01
Cc1nc(NCc2ccccn2)c2c3c(sc2n1)CCCC3	i	2.8
Cn1c2ccccc2c2n[nH]c(=O)nc21	i	0.94
COc1ccc(NC(=O)Cn2nnc(C(=O)NCc3ccco3)c2N)cc1	i	1.1
CCn1c(SCC(=O)Nc2nc(-c3ccc(C)cc3)cs2)nnc1-c1ccccc1O	i	0.84
COCCN(C(=O)c1ccccc1F)c1nc(-c2ccc(OC)cc2)cs1	i	0.67
CCOc1ccc(NC(=O)CCNC(=O)c2ccc(Br)cc2)cc1	i	-0.04
CN1CCC(=NNc2ncnc3sc4c(c23)CCCC4)CC1	i	2.9
COc1ccc(CCn2c(-c3ccc(OC)cc3)nc3c(c(=O)c4ccccc4n3C)c2=O)cc1	i	0.57
COC(=O)C(NC(=O)c1ccccc1)=C(C)C	i	1.3
S=C(Nc1ccccc1)Nc1ccc(OCc2ccc(Cl)cc2Cl)cc1	i	-0.12
CN1CCN(C(=O)c2cnn(-c3ccccc3)c2NC(=O)c2ccccc2Cl)CC1	i	0.45
Cc1cccc(N2CCN(C(=O)CCn3c(=O)[nH]c4ccccc4c3=O)CC2)c1C	i	-0.05
O=S(=O)(c1ccc(NC(=S)N/N=C/c2ccc(N3CCOCC3)cc2)cc1)N1CCOCC1	i	-0.32
CN(c1ccc(OCc2nnc(-c3ccccc3)o2)cc1)S(=O)(=O)c1ccccc1	i	-1.6
COC(=O)CSc1[nH]c2ccccc2c1[N+](=O)[O-]	i	2.6
Cc1ccc(S(=O)(=O)/N=C(\Sc2ccccc2)c2ccccc2)cc1	i	-3.1
CCN(CCn1cccn1)C(=O)c1ccc2nc(Cc3ccc(OC)cc3)oc2c1	i	0.53
CC(=O)C(N=Nc1ccccc1)(Sc1nnc(-c2ccccc2)n1-c1ccccc1)C(C)=O	i	0.49
Cc1ccc(Cl)cc1NC(=O)c1ccc(Cn2cc(Cl)cn2)cc1	i	0.1
CCOC(=O)C1CCN(C(=O)c2cc(COc3ccc(OC)c4ccccc34)on2)CC1	i	0.07
N/C(=N\OC(=O)c1ccccc1)c1ccncc1	i	-0.69

Already shown: entries from further up.
SMILES	KCNQ2 block	KCNQ2 block baseline
Cc1ccc(S(=O)(=O)/N=C(\Sc2ccccc2)c2ccccc2)cc1	i	-3.1
CCN(CCn1cccn1)C(=O)c1ccc2nc(Cc3ccc(OC)cc3)oc2c1	i	0.53
CC(=O)C(N=Nc1ccccc1)(Sc1nnc(-c2ccccc2)n1-c1ccccc1)C(C)=O	i	0.49
Cc1ccc(Cl)cc1NC(=O)c1ccc(Cn2cc(Cl)cn2)cc1	i	0.1
CCOC(=O)C1CCN(C(=O)c2cc(COc3ccc(OC)c4ccccc34)on2)CC1	i	0.07
N/C(=N\OC(=O)c1ccccc1)c1ccncc1	i	-0.69

Additional structures follow.
SMILES	KCNQ2 block	KCNQ2 block baseline
COCCNC(=O)c1cnn2c1NC(c1ccco1)CC2C(F)(F)F (configuration not stated)	i	-2.2
CC(C)(C)C(=O)n1nc(-c2ccccc2)oc1=O	i	-1.2
O=C1/C(=C\c2ccc(O)cc2)SC(=S)N1Cc1ccccc1	i	0.03
O=C(Oc1c(-c2ccccc2)c(=O)n2c3c(cccc13)CC2)c1ccc(F)cc1	i	0.08
COc1ccc(C(=O)NCc2nnc(SCC(=O)NCc3ccc(F)cc3)o2)cc1	i	2.2
O=C(CN(CC1CCCO1)C(=O)CNS(=O)(=O)c1ccc(F)cc1)NCc1ccco1 (configuration not stated)	i	-0.09
CCn1c(/C=C/c2ccccc2Cl)nc2ccccc2c1=O	i	0.04
O=C(C/C=N/OCc1c(Cl)cccc1Cl)c1ccc(Cl)cc1	-7.4*	-1.5*
CCn1c(CN(C)c2ccccc2)nc2ccccc21	i	0.02
COc1ccc(C(=O)Nc2ccc(C)cn2)c(OC)c1	i	-0.62
Cc1ccc(N2CCN(/N=C/c3ccccc3[N+](=O)[O-])CC2)cc1	i	2.1
c1ccc2c(c1)Nc1ccncc1S2	i	1.8
COc1cccc(CN2CCC(Oc3ccc(C(=O)N4CCCCC4)cc3)CC2)c1	i	-0.08
Cc1cc(Cl)c2oc(C(=O)N3CCC(O)(c4ccccc4)CC3)c(C)c2c1	i	0.6
O=C(O)c1cccc2c(-c3ccccc3)c(-c3ccccc3)[nH]c12	i	-0.81

Part of the list above in another layout:
Compound,KCNQ2 block,KCNQ2 block baseline
O=C1/C(=C\c2ccc(O)cc2)SC(=S)N1Cc1ccccc1,i,0.03
O=C(Oc1c(-c2ccccc2)c(=O)n2c3c(cccc13)CC2)c1ccc(F)cc1,i,0.08
COc1ccc(C(=O)NCc2nnc(SCC(=O)NCc3ccc(F)cc3)o2)cc1,i,2.2

Complete entries from above.
Record of O=C(CN(CC1CCCO1)C(=O)CNS(=O)(=O)c1ccc(F)cc1)NCc1ccco1 (configuration not stated) : KCNQ2 block = i; KCNQ2 block baseline = -0.09
Record of O=C1/C(=C\c2ccc(O)cc2)SC(=S)N1Cc1ccccc1 : KCNQ2 block = i; KCNQ2 block baseline = 0.03

New compounds follow
SMILES	KCNQ2 block	KCNQ2 block baseline
C#C[C@]1(O)CC[C@H]2[C@@H]3[C@H](C)CC4=C(CCC(=O)C4)[C@H]3CC[C@@]21C	i	-0.04
Cc1ccc(N2CCN(S(=O)(=O)c3nnc(NC(=O)c4ccccc4)s3)CC2)cc1	i	-0.78
Cc1cccc(C)c1OCC(=O)NCc1nnc(SCC(=O)NC2CCCCC2C)n1C (configuration not stated)	i	-0.03
Cc1c(NC(=O)CCC2CCCCC2)c(=O)n(-c2ccccc2)n1C	i	3.5
O=C(Nc1cccc(Cl)c1)C1CCCN(S(=O)(=O)c2ccc(F)cc2)C1 (configuration not stated)	i	-0.06
COc1ccccc1C(=O)C1CCCN(C(=O)c2ccccc2Cl)C1 (configuration not stated)	i	2.1
COc1ccc2c(c1)c(C(=O)N/N=C/c1ccc(Cl)cc1)c(C)n2C	i	-0.05
CC1CCCC(C)N1C(=O)CSc1nnnn1Cc1ccccc1 (configuration not stated)	i	-0.51
CN(C)S(=O)(=O)Nc1ccc(C(=O)O)cc1	i	-0.02
CC(NC(=O)C(C)(C)C)c1nc2ccccc2n1C (configuration not stated)	i	0.69
COc1cc(/C=N/N=C(/N)c2nonc2N)cc(Br)c1OCc1ccccc1C	i	0.2
Cc1ccccc1NS(=O)(=O)c1ccc(OCC(=O)N2CCCC2)cc1	i	2.1
Nc1cccc(C(=O)OCC(=O)Nc2cccc3c2C(=O)c2ccccc2C3=O)c1	i	1.9
CC(C)c1ccc(-n2c(-c3ccccc3)c[n+]3c2CCc2ccccc2-3)cc1	-7.4*	-0.86*
COc1ccccc1N1CCN(C(=O)CCc2nnc3ccc(N4CCOCC4)nn23)CC1	i	-0.43
C/C(=C\C(=S)Nc1ccccc1)Nc1ccccc1	i	0.86
O=C(NCCCn1ccnc1)c1ccc(Br)c(S(=O)(=O)N2CCOCC2)c1	i	1.1
COc1cccc(C(=O)Nc2cccc(OCC(=O)c3ccccc3)c2)c1	i	3.1
CCCCOCCCn1cnc2c([nH]c3cc(OC)ccc32)c1=O	i	-0.73
COC(=O)c1ccc(OC)c(Cn2c(=O)n(C)c(=O)c3ccccc32)c1	i	4
CN1CCC(OC(=O)c2cc3cc(Cl)cc(Cl)c3oc2=O)CC1	i	1.8
CN(Cc1ccccc1)S(=O)(=O)c1ccc(NC(=S)NC(=O)C2CCCC2)cc1	i	1.5
C[C@@H]1CCC[C@H](C)N1NC(=O)c1ccc(Cl)c(S(N)(=O)=O)c1	i	0.94
Cc1cccc2cc(CNCc3ccccc3)c(Cl)nc12	i	-1.4
CC1(c2nnc(-c3ccc(Cl)cc3)o2)CC(c2c(Cl)cccc2Cl)=NO1 (configuration not stated)	i	-1.6
Fc1ccccc1-n1c(-c2ccc3ccccc3n2)n[nH]c1=S	i	-0.99
O=C(O)CSc1c(O)c2ccccc2[nH]c1=O	i	0.23
O=C(Nc1ccc(OC(F)(F)F)cc1)c1ccc(S(=O)(=O)N2CCOCC2)o1	i	-0.01
Cc1ccc(S(=O)(=O)N2CCOCC2)cc1C(=O)NC1CCSc2ccccc21 (configuration not stated)	i	-0.97
COc1ccc(OC)c2[nH]c(C(=O)N/N=C/c3ccccc3O)cc12	i	1.3
